# Assay outcomes as filed in PubChem.
# T cruzi repl = T. cruzi replication inhibition; T. cruzi beta-gal in NIH3T3, luminescence, 90 h; inhibition, % (test concentration not listed); hit rate 1.4% among 300,000;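 active = mean inhibition across valid replicates above about 55%, limit read from the data; inconclusive = mean below that limit but half or more replicates reach it; inactive = mean below it, under half of replicates reach it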;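 note: signal also drops with host cell toxicity which is not excluded here; 0% = plate median of DMSO wells and 100% = zero luminescence signal; higher percent means less beta-gal luminescence so fewer parasites; stock transfer was 50 nL into about 50 µL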
# Beta2AR agonist = human beta-2 adrenergic receptor agonism by FAP; response, % (no concentration beside the values); P07550; hit rate 0.43% among 340,000; Am2.2-beta2AR cells, FAP receptor internalization, flow cytometry; reference of the scale not given here;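 active = response above a set limit, near 3 SD of response in nonfluorescent compounds, cut at about 42% in these data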;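 note: stock transfer was 100 nL into about 11 µL; a reference agonist was the positive control; negative values mostly stem from fluorescent compounds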
# Target sequence (P07550 whole entry, looked up): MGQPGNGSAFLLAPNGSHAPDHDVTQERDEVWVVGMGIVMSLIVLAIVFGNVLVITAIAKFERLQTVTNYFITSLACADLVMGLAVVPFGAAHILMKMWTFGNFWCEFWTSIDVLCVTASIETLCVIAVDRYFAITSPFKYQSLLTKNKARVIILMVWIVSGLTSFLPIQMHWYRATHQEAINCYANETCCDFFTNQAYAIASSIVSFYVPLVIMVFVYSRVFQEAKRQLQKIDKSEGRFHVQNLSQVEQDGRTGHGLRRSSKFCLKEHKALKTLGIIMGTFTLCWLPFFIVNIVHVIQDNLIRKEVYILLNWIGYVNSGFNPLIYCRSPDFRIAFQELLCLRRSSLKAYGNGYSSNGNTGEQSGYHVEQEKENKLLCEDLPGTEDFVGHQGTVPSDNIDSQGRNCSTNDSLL
# Calb FLC = affects C. albicans growth with fluconazole | hit rate 0.57% among 300,000 | C. albicans CaCi-2 (fluconazole-resistant clinical isolate) + fluconazole, Alamar Blue growth, 48 h | AID 1979 | growth inhibition, % (test concentration not listed);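 active = most replicates above 75%; inconclusive = exactly half above 75%; inactive = most below 75%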;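 note: all wells also contain fluconazole at 8 µg/ml as a sub-toxic cotreatment; 0% = median of DMSO wells and 100% = median of geldanamycin control wells; wells of about 8 µL received 7.5 nL stock; the first replicate is given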
# RanGTP-Impb inh = disruptors of Ran-importin-beta complex formation – biochemical, FRET, CFP-Ran, YFP-importin-beta, homogeneous, primary screen; cell-free CFP-Ran/YFP-importin-beta FRET ratio; inhibition, % (test concentration not listed); hit rate 1.1% among 300,000; AID 2216;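 active = most replicates above 15%; inconclusive = exactly half above 15%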;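 note: 0% = DMSO wells and 100% = Ran loaded with GDP instead of GTP; wells of about 40 µL received 100 nL stock; the first replicate is given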
# LANA-H2A inh = blocks KSHV LANA binding to histone H2A/H2B; hit rate 0.6% among 320,000; AID 2629; inhibition, % (test concentration not listed); Q9QR71; cell-free LANA-H2A/H2B peptide, fluorescence polarization; in the data active = inhibition mostly above about 10%, no sharp cut-off; inactive = mostly below about 6.7%;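 note: stock transfer was 7.5 nL into about 10 µL; 0% = median of vehicle wells and 100% = median of positive control wells; one replicate is shown; the record names a cut of 25% in any replicate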
# UCH37 DUB inh = blocks the human deubiquitinase UCH37. Q9Y5K5. purified proteasome/UCH37, Ub-AMC cleavage fluorescence. inhibition, % (concentration not given with the values). hit rate 0.33% among 330,000;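 active = mean of two replicates above 20%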;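 note: 0% = compound-free wells with enzyme and 100% = wells lacking proteasome; stock transfer was 100 nL into about 20 µL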
# Target sequence (Q9Y5K5 whole entry, looked up): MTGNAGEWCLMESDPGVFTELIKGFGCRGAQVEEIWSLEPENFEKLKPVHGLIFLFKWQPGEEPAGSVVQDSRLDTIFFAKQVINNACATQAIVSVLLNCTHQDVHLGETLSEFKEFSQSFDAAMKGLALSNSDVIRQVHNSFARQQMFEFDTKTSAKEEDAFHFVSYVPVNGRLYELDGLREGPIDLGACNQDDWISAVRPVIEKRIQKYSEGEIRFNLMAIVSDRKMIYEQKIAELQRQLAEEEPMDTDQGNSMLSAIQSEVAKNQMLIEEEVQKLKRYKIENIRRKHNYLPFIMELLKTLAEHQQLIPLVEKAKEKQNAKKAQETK
#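 assay system = human UCH37 enzyme supplied as purified proteasome complex | amount = proteasome at 0.15 nM in the dispensed enzyme solution | schedule = 30 min compound-proteasome preincubation then 25 min substrate reaction, room temperature | measured by = fluorescence, ex 355 nm, em 460 nm | benchmarks = no-proteasome wells (full inhibition) and compound-free wells (no inhibition)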
# Beta cell apopt = beta cell apoptosis inhibition; AID 435005; INS-1E cytokine-induced death, ATP luminescence, 48 h; percent of positive-control rescue, neutral wells zero; protection from apoptosis, % (concentration not given with the values); hit rate 0.8% among 300,000;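 active = all replicates at 75% or more, or half of them and the mean; inconclusive = half reach 75% but not the mean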;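 note: 0% = cytokine-treated negative control wells and 100% = positive control rescue; higher means more ATP so stronger rescue from cytokine killing; wells of about 40 µL received 100 nL stock; the first replicate is given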
# Bfl-1 A1 inh = inhibitors of the anti-apoptotic protein A1, read as caspase activation | MEF A1-2A-BIM cells, Caspase-Glo 3/7 luminescence, 3 h; percent of clofoctol response, vehicle zero | caspase activation, % (no concentration beside the values) | hit rate 0.066% among 330,000 | AID 2462;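 active = over half of replicate activation scores above 10%, or exactly half above 10 with the replicate mean above 10; inconclusive = replicate mean below 10 yet half the replicates above 10; inactive = over half of replicates below 10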;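 note: wells of about 30 µL received 50 nL stock; many hits fall short of the cut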
# * marks the source's active call; other numbers are inactive results; ? = inconclusive; / = no result given.
# Start of the data: the first four entries (preview)
SMILES,T cruzi repl,Beta2AR agonist,Calb FLC,RanGTP-Impb inh,LANA-H2A inh,UCH37 DUB inh,Beta cell apopt,Bfl-1 A1 inh
N=C1/C(=C/c2ccc(OCc3ccccc3)cc2)C(=O)N=C2SC(CC(=O)N3CCOCC3)=NN12,-26,-4,16,7.5,4.8,9.1,2,-0.9
CSc1ccccc1OCc1cc(C(=O)NCCn2ccnc2C)no1,-7,0,-3,-3.1,-2.7,-0.1,0,0.3
CCCC(=O)Nc1ccc2c(c1)C(=O)N(CCC(=O)O)C2=O,4,12,29,7.1,-0.1,-477,0,1.2
CN(C(=O)OC(C)(C)C)c1ccc(-c2nc3ccccc3s2)cc1,16,10,-8,-0.4,-7.9,-12,2,-11

# The list itself, previewed entries included:
SMILES,T cruzi repl,Beta2AR agonist,Calb FLC,RanGTP-Impb inh,LANA-H2A inh,UCH37 DUB inh,Beta cell apopt,Bfl-1 A1 inh
N=C1/C(=C/c2ccc(OCc3ccccc3)cc2)C(=O)N=C2SC(CC(=O)N3CCOCC3)=NN12,-26,-4,16,7.5,4.8,9.1,2,-0.9
CSc1ccccc1OCc1cc(C(=O)NCCn2ccnc2C)no1,-7,0,-3,-3.1,-2.7,-0.1,0,0.3
CCCC(=O)Nc1ccc2c(c1)C(=O)N(CCC(=O)O)C2=O,4,12,29,7.1,-0.1,-477,0,1.2
CN(C(=O)OC(C)(C)C)c1ccc(-c2nc3ccccc3s2)cc1,16,10,-8,-0.4,-7.9,-12,2,-11
Cc1ccccc1CS(=O)(=O)Cc1ccc(C(=O)N2CCOCC2)o1,-10,10,-6,2.7,/,5.4,-3,0.4
C/C(=N\Nc1cc(C)nc(-c2ccccc2)n1)c1cccc([N+](=O)[O-])c1,40,7,-9,0.7,-3.4,/,21,0.6
CC(=O)N1CCc2cc(C(=O)CN3CCN(c4cccc(Cl)c4)CC3)ccc21,-2,57*,-1,-2.6,2.2,4.4,-1,-0.2
COc1ccc(S(=O)(=O)NCCN2CCOCC2)c2ccccc12,2,-2,21,3.0,-2.2,5.2,-2,0.0
COc1ccc(NC(=O)CSc2nc3ccccc3c(=O)n2CCCN2CCCCC2)c(OC)c1,22,14,-37,0.8,1.0,2.0,-5,-0.6
CCOC(=O)CSc1cc(CS(=O)(=O)c2ccccc2)nc(-c2ccccc2)n1,-8,1,-17,4.5,6.1,2.4,-3,-0.5
COc1ccc(C2CC(=O)C3=C(C2)Nc2ccccc2N(C(C)=O)C3c2ccco2)cc1 (configuration not stated),-2,-1,14,0.2,-7.8,-16,-6,-0.4
CC(=O)N1CCN(c2ccc(NCc3ccco3)cc2)CC1,/,12,/,/,-1.8,1.7,-2,1.2

# Sorted by value in RanGTP-Impb inh (falling): three from the list above.
SMILES | Beta2AR agonist | RanGTP-Impb inh | LANA-H2A inh | UCH37 DUB inh
CCCC(=O)Nc1ccc2c(c1)C(=O)N(CCC(=O)O)C2=O | 12 | 7.1 | -0.1 | -477
COc1ccc(S(=O)(=O)NCCN2CCOCC2)c2ccccc12 | -2 | 3.0 | -2.2 | 5.2
COc1ccc(C2CC(=O)C3=C(C2)Nc2ccccc2N(C(C)=O)C3c2ccco2)cc1 (configuration not stated) | -1 | 0.2 | -7.8 | -16

# Later entries
SMILES,T cruzi repl,Beta2AR agonist,Calb FLC,RanGTP-Impb inh,LANA-H2A inh,UCH37 DUB inh,Beta cell apopt,Bfl-1 A1 inh
O=C(COC(=O)c1cccc(Br)c1)NCCc1ccc(F)cc1,-11,1,-5,1.6,1.5,1.0,1,-0.5
COc1ccc(CNC(=O)CN(C(=O)CCC(=O)Nc2ccccn2)c2cc(C)ccc2C)cc1,0,-5,0,7.8,-2.4,0.2,-5,0.2
Cc1ccc(/C=C2/SC(=S)N(CC(=O)Nc3ncc(Cc4ccc(C)cc4)s3)C2=O)cc1,-7,-5,54,0.9,0.5,9.6,5,0.5
O=C(O)[C@H](Cc1ccccc1)NC(=O)C(c1ccccc1)(c1ccccc1)c1ccccc1,-23,-3,43,1.1,-2.0,1.2,2,-0.7
O=C(/C=C/c1ccc(S(=O)(=O)N2CCOCC2)cc1)N1CCN(c2ccccc2)CC1,11,-4,?,-3.1,0.5,2.5,17,-0.5
CC(=O)N1CCc2cc(Br)cc(S(=O)(=O)N3CCCCC3)c21,9,-26,-10,3.1,0.3,-0.5,-9,-2.6
CCOc1ccc(C(=O)NCC(=O)OCC(=O)N2CCCC2)cc1,-20,2,1,5.2,-5.9,-5.1,-2,0.2
CCCCNC(=S)NNC(=O)c1cc(C)on1,-9,8,-12,-0.1,-3.6,3.2,-3,0.6
O=C(O)COc1ccc(C(NC(=O)c2c(F)cccc2F)NC(=O)c2c(F)cccc2F)cc1,-9,9,-3,5.3,-2.7,0.6,1,0.0
CCOc1ccccc1OCCCC(=O)NCCc1ccc(S(N)(=O)=O)cc1,10,-5,7,-1.5,2.4,3.2,-2,0.7
CC(C)COC(=O)Cn1cnc2ccc(Br)cc2c1=O,8,9,5,-2.2,4.3,2.7,-9,0.9
NNc1nc2c(-c3ccc(Cl)cc3)nnn2c2ccccc12,0,-36,15,-5.0,-5.7,-20,12,-6.1
O=C(Nc1ccccc1C(F)(F)F)C1CCN(C(=O)Cc2ccccc2)CC1,-4,6,-2,7.9,3.4,0.4,0,1.0
OCCN(CCO)CC(O)COCCC12CC3CC(CC(C3)C1)C2 (configuration not stated),12,8,-19,1.0,1.6,/,1,-0.5
COC(=O)/C(C#N)=C1/SC=C(C)N1c1ccccc1,2,11,26,-3.4,-3.2,7.8,-6,-0.7
COC(=O)CNC(=O)COC(=O)Cc1ccc(Cl)cc1,-6,0,-16,1.6,0.3,0.6,-3,0.0
CCOC(=O)N1CCN(Cc2nc(-c3cccc(C)c3)no2)CC1,-18,2,-6,0.1,-7.5,1.3,-3,0.8
CSc1n[nH]c(-c2ccc(C(F)(F)F)cc2)n1,-5,-6,-8,-0.4,-0.2,5.1,/,-1.6
CN1C(=O)C(O)(C2CCCCCC2=O)c2ccccc21 (configuration not stated),-3,3,-4,3.1,-0.1,1.6,/,1.0
COc1ccc(/C=C/C(=O)Nc2ccc(C34CC5CC(CC(O)(C5)C3)C4)cc2)cc1OC,42,20,1,-0.2,-0.8,-28,6,-0.4
CCOc1ccc(C(C)=O)cc1Cn1nc(C(=O)O)c2ccccc2c1=O,-5,-15,-13,2.3,1.4,2.0,/,-1.3
CCN(CC)C(=S)Nc1c(C)n(C)n(-c2ccccc2)c1=O,-10,5,-6,0.8,11,-1.9,0,0.6
CCN1CCN(CCC(=O)Nc2cc(OC)cc(OC)c2)CC1,3,5,3,4.3,1.8,-0.9,-1,2.3
COCCNC(=O)c1cccc(S(=O)(=O)N2CC3(C)CC2CC(C)(C)C3)c1 (configuration not stated),-12,5,4,/,3.6,1.7,3,0.7
Cc1c(Br)c([N+](=O)[O-])nn1C(C)C(=O)NCc1ccco1 (configuration not stated),12,8,2,2.3,1.2,0.8,-3,-0.5
Cc1ccc(CNS(=O)(=O)c2ccc(F)c(F)c2)n1C,3,3,1,5.7,-3.0,6.5,-3,0.1
Cc1ccc(S(=O)(=O)N2CCCC2C(=O)O)s1 (configuration not stated),1,4,5,-0.8,4.2,6.8,-6,0.0
CCOc1ccc(CCN2C(=O)C3C4C=CC(C4)C3C2=O)cc1OCC (configuration not stated),15,10,4,?,1.1,3.6,1,-0.4
COc1ccc(CCNC(=O)CSc2nnnn2-c2ccc(OC)c(OC)c2)cc1OC,7,-2,22,2.4,-2.2,3.0,5,-0.1
Cc1ccc2nc(SCC(=O)Nc3cccc(S(N)(=O)=O)c3)[nH]c2c1,3,-2,3,0.1,1.9,6.9,0,0.5
Cc1cc(C(=O)CN2C(=O)C(=O)N(C)C2=O)c(C)n1-c1cccc(S(=O)(=O)N2CCOCC2)c1,-4,-4,-2,-0.1,0.3,3.5,-2,-1.2
COc1ccccc1NC(=O)Cn1nnc2sc3c(c2c1=O)CC(C)(C)OC3,0,-1,-25,-1.8,-7.9,7.6,4,-0.2
O=C(CCCN=C1NS(=O)(=O)c2ccccc21)OCc1ccccc1,-5,-6,-3,0.4,1.2,-0.2,7,?
COc1cccc(NC(=O)c2cc(-c3cccnc3)nc3c(Cl)cccc23)c1,14,5,10,-1.5,2.0,-7.4,24,0.1
Cc1cc(=O)oc2cc(OCC(O)Cn3ccnc3)ccc12 (configuration not stated),-11,-2,-3,-1.4,6.7,-50,-1,-0.9
CC(C)C(=O)Nc1cccc(NC(=O)c2cccc([N+](=O)[O-])c2)c1,3,-11,-9,-0.6,-2.2,1.3,5,-0.6
CC(C)(C)C1CCc2onc(C(=O)O)c2C1 (configuration not stated),-1,-4,18,6.6,0.7,0.2,/,-0.2
CN(C(=O)COc1cc(=O)n(C)c2ccccc12)c1ccc(Br)cc1,10,-25,3,3.6,-0.1,2.4,0,-0.2
CN(CC(O)COC(c1ccccc1)c1ccccc1)C1CCCCC1 (configuration not stated),38,13,-32,4.4,-7.4,6.0,12,?
O=C(NCc1ccccc1)C(c1ccccc1)N(C(=O)c1csnn1)c1ccc(F)cc1 (configuration not stated),8,3,1,2.9,2.2,2.4,-2,0.4
O=C(c1ccc(S(=O)(=O)NCc2ccco2)cc1)N1CCN(c2ccccc2)CC1,/,8,/,/,1.0,1.6,-10,0.8
O=[N+]([O-])c1ccc(F)cc1Oc1nc(-c2cccnc2)nc2ccccc12,4,13,13,1.3,5.9,-2.4,18,0.7
O=c1cnnc(Nc2ccc(F)cc2)[nH]1,4,6,3,2.4,-2.3,5.5,/,0.3
CCN(CC)Cc1c(C(=O)N/N=C/c2ccncc2)nnn1-c1nonc1N,-5,-5,-8,-0.1,1.8,/,-9,-0.2
